From PubChem BioAssay
D2 PAM: positive allosteric modulators of human D2 dopamine receptor; AID 624464; DiscoveRx D2 beta-arrestin cells, luminescence, 90 min; 100% = 57 uM dopamine signal; potentiation, % (concentration not given with the values); 360,000 compounds, 0.23% hits; active = potentiation of 50% or more; inconclusive = 30% to 50%; inactive = 30% or less;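 also: tested on top of an EC20 dose of dopamine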
Target sequence (P14416 whole entry, looked up): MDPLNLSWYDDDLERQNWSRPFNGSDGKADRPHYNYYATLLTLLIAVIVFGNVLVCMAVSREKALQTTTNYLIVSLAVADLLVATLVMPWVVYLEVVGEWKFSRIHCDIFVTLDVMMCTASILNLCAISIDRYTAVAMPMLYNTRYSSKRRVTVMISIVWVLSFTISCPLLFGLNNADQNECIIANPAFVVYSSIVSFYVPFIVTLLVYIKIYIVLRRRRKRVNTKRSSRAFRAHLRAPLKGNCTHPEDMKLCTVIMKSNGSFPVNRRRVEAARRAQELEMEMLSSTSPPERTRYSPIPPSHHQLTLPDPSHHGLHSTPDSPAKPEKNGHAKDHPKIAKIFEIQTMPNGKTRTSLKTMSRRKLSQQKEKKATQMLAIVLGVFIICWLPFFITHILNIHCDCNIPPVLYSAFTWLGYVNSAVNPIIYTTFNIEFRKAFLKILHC
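PathHunter beta-arrestin assay in DiscoveRx D2 cells. Compounds were added with an EC20 of dopamine (50 nM final) for 90 min at 37 deg C. Luminescence was read 1 h after detection reagent, with 57 uM dopamine as the EC100 control.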
Six1-Eya2 blk: blocks human Six1 binding to Eya2; activity change, % (no concentration beside the values); AID 651725; AlphaScreen GST-Six1/His-Eya2 binding, biochemical; hits give low values; control for the full effect not named in the record; 360,000 compounds, 0.56% hits; in the data active = activity change below about -65%; inconclusive = about -30% to -65%; inactive = above about -30%; also: % is scaled to controls: 0 for no effect and ±100 for the full control effect
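Compounds are tested against tagged Six1 and Eya2 proteins bridged by glutathione donor and nickel acceptor beads; after a one-hour incubation at 37 °C without light, AlphaScreen emission is recorded.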
TRPML1 blocker: blocks the human TRPML1 channel | TRPML1-inducible cells, Ca2+ dye fluorescence, FDSS; hits give low values; inhibition of EC80 agonist-evoked calcium signal | 390,000 compounds, 0.02% hits | activity change, negative = inhibition, % (no concentration beside the values) | AID 624415 | Q9GZU1; in the data active means activity change below about -50%; inconclusive means about -30% to -50%; inactive means above about -30%;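 also: stimulus is agonist 54-4 at its EC80 concentration; % is scaled to controls: 0 for no effect and ±100 for the full control effect; compound concentration not given in the record; the text of the record puts the active cut at -80%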
Target sequence (Q9GZU1 whole entry, looked up): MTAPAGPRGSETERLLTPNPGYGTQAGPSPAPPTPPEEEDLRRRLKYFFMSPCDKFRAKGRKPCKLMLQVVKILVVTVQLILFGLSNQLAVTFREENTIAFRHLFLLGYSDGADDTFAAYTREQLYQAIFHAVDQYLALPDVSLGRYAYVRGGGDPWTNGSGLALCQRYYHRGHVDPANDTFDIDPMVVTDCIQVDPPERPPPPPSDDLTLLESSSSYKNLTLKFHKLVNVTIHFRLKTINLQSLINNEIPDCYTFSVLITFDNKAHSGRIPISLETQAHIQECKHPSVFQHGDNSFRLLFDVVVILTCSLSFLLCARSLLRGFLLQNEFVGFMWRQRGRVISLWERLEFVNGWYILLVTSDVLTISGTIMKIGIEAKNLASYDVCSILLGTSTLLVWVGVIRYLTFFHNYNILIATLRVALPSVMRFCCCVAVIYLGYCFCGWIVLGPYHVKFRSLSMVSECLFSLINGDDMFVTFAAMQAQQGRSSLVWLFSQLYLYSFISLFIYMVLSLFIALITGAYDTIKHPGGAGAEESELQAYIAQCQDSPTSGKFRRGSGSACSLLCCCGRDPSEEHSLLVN
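Calcium fluorescence in TRPML1-DL cells induced overnight with Tet: a 110 s read after compound pin addition, then a 110 s antagonist read after challenge with 54-4 at 4 uM final (EC80).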
TRPML1 agonist: agonists of human TRPML1 channel; Q9GZU1; TRPML1-expressing cells, Ca2+ dye fluorescence, FDSS; host cell line not named in the record; reference of the full effect not given here; activation, % (concentration not given with the values); 410,000 compounds, 0.12% hits; AID 624414; in the data active = activation above about 50%; inconclusive = about 30% to 50%; inactive = below about 30%; also: 0% is about no effect; the text of the record puts the active cut at 80%
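TRPML1-DL cells, Tet-induced overnight (~16 h, 37 degrees C), loaded 45-90 min at room temperature with Ca8 no-wash calcium dye plus quencher. FDSS fluorescence: 10 s baseline, compound pin-transfer, 110 s agonist read, then EC80 54-4 (4uM final) and 110 s antagonist read.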
D2 agonist: activates the human D2 dopamine receptor. 360,000 compounds, 0.084% hits. P14416. DiscoveRx PathHunter D2 beta-arrestin, luminescence, 90 min; 100% = 57 uM dopamine signal. activation, % (concentration not given with the values). AID 624465; in the data active = activation above about 40%; inconclusive = about 15% to 40%; inactive = below about 15%; also: the text of the record calls up to 30% inactive
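Agonist mode: compounds alone added to overnight-plated D2 PathHunter cells for 90 min at 37 C, with 57 uM final dopamine (EC100) defining full response. Beta-arrestin recruitment detected by chemiluminescent reagent, read after 1 h at ambient temperature.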
PINK1 expr mod: modulators of PINK1 expression; PINK1 immunofluorescence, high-content cytometry, 24 h; Potency, µM (doses to about 76.6 µM), for the others: at the top dose activation (PINK1 increase), usual class: activators; 410,000 compounds, 0.2% hits; AID 624263; active = well fitted activation curve with a large enough effect; inconclusive = small, poorly fitted or top-dose-only effect; inactive = flat fitted curve, though single readings scatter; cell line not stated here;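 also: potency is read from the fitted curve at half-maximal effect; % of control where 0% means no effect; nearly all actives have a fitted effect of over 65% in size; a mitochondrial uncoupler was the plate control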
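Fluorescence from anti-PINK1 antibody, together with nuclear and cell stains, was scanned on a laser-scanning cytometer. Before staining, stable-line cells were incubated 24 hours with compounds at 5 concentrations; primary antibody 12 h at 10 degrees C.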
* marks the source's active call; other numbers are inactive results; u = inconclusive; x = no result given; & = joins results of further samples; [ ] = another dose, or the depositor's remark.

Each structure is followed by: D2 PAM | Six1-Eya2 blk | TRPML1 blocker | TRPML1 agonist | D2 agonist | PINK1 expr mod
- Cc1ccsc1C1C2=C(CC(C)(C)CC2=O)Nc2ncnn21 (stereo unspecified)
→ -9 | -3 | 6 | -1.0 | -5.6 | 4.9%
- C[C@@H](c1ccccc1)N1C[C@H](COCc2ccccc2)Oc2cc(N3CC[C@H](N(C)C)C3)ccc2S1(=O)=O
→ x | -28 | x | -0.4 | x | 7.8%
- CCCN(CCC)CCCNC(=O)C1CCN(c2nc3ccc(CC)cc3s2)CC1
→ x | x | 17 | 1.1 | x | 1.4%
- CC(C)(C)C1CCC(=O)N(CCSc2ccccc2)CC1 (stereo unspecified)
→ -27 | 7 | -1 | -0.6&1.8 | 1.5 | 6.6%
- COc1ccc(NC(=O)c2cccc(C#N)c2)cc1NS(=O)(=O)c1ccc(F)cc1
→ 3 | -11 | 9 | 0.5 | -0.1 | -0.2%
- COc1ccc(CC(=O)NC(=S)Nc2ccc(S(=O)(=O)NC(C)(C)C)cc2)cc1
→ -11 | -2 | -24 | 12 | -2.7 | -0.9%
- Cc1sc2nc(CSC(C)C(=O)Nc3cc(S(C)(=O)=O)ccc3Cl)[nH]c(=O)c2c1C (stereo unspecified)
→ -19 | 6 | 7 | 0.0 | -1.8 | -1.5%
- Cc1cc(F)ccc1NC(=O)CCCN(C)S(=O)(=O)c1ccc(F)cc1
→ -13 | -17 | 0 | -1.7 | -6.2 | -0.4%
- CCOc1ccc(C2CC(=O)c3c([nH]c(C(=O)OC)c3C)C2)cc1OC (stereo unspecified)
→ -10 | 3 | -15 | 0.3 | 3.3 | 7.1%
- O=C(O)c1cccc2[nH]c(C(F)(F)F)nc12
→ -4 | 9 | 8 | 0.0 | -0.6 | -0.6%
- COc1cccc(NC(=O)CN(C)C(=O)c2cc3c(s2)CCC3)c1
→ 10 | -9 | 1 | -0.6 | -0.1 | -1.0%
- CCCOc1ccc(/C=N/NC(=O)c2ccc(Cn3cc([N+](=O)[O-])cn3)o2)cc1
→ -7 | 4 | -2 | -0.1 | 9.0 | u
- Cc1ccc(CN2C(=O)C(F)(F)Oc3ccc(C)cc32)cc1
→ -20 | 18 | x | -0.1 | -4.0 | 2.1%
- CC1Cc2ccccc2N1c1ncnc2c1nnn2Cc1ccccc1 (stereo unspecified)
→ -17 | 9 | -1 | 1.2 | -4.7 | 28%[38.3 µM]
- COCCn1c(=S)[nH]c2cc(C(=O)N3CCC(C(N)=O)(N4CCCCC4)CC3)ccc2c1=O
→ -4 | 1 | 0 | 1.6 | 0.6 | -1.5%[38.3 µM]
- COc1ccc(CCNC(=O)CSc2nnc(-c3ccc(C)cc3)c(-c3ccc(C)cc3)n2)cc1OC
→ x | x | 8 | 3.3 | x | u
- Clc1ccc(CNc2ncnc3onc(-c4ccc(Cl)cc4)c23)cc1
→ x | x | 5 | 0.3 | x | 3.0%
- CCOc1cc(S(=O)(=O)NCc2ccco2)c(OCC)cc1-n1cnnn1
→ -4 | -2 | -6 | 0.4 | -1.0 | x
- CCCc1nc2c(C)cc(Br)cn2c1Cc1ccccc1C(F)(F)F
→ -13 | 2 | x | 0.4 | -9.6 | -0.7%
- Cc1cc(C)cc(OCC(=O)OCC(=O)Nc2ccc(Cl)cn2)c1
→ 16 | 6 | 35 | 5.1 | -1.3 | 0.7%
- CCc1nc2c(cnn2-c2ccc(C)cc2)c(=O)n1-c1ccc(C)cc1
→ x | x | 3 | -1.1 | x | 3.8%
- Cc1c(C(=O)NCc2ccccn2)sc(=O)n1Cc1ccc(-c2ccccc2)cc1
→ -6 | -6 | x | 0.3 | 0.7 | -0.6%
- Cc1cc(=O)oc(C)c1C(=O)NCCN(C)Cc1ccccc1
→ -17 | 0 | 22 | 0.7 | -2.9 | 1.2%
- CCOC(=O)c1cc(Br)c(=O)n2ccccc12
→ 5 | 0 | -11 | -0.9 | -2.4 | -1.4%
- COC(=O)c1sccc1NC(=O)Nc1ccc(C)cc1
→ -14 | -14 | 22 | 0.0 | -4.7 | 0.3%
- O=C(O)c1cccc(OCc2ccccc2Cl)c1
→ -8 | 5 | -22 | 0.2 | -3.8 | 2.2%[38.3 µM]
- CCOC(CCNC(=O)c1cn(CC(C)C)c(=O)c2c1c1ccccc1n2C)OCC
→ 11 | 4 | u | -0.7 | 0.8 | 3.2%
- O=c1cc(-c2cccc3ccccc23)[nH][nH]1
→ -14 | -4 | -2 | -1.0 | 0.2 | 0.4%
- CCOC(=O)c1cc(-c2ccc(F)cc2)n(CC(=O)NCc2ccc(OC)cc2)c1C
→ x | x | 3 | 0.2 | x | 7.4%
- CC1(C(=O)OCC(=O)NNC(=O)COc2ccc(Cl)cc2)CC1(Cl)Cl (stereo unspecified)
→ 17 | -3 | 15 | 0.3 | -2.3 | 0.0%

Quoted from the listing.
CCc1nc2c(cnn2-c2ccc(C)cc2)c(=O)n1-c1ccc(C)cc1 in TRPML1 agonist is entered as -1.1
Cc1cc(C)cc(OCC(=O)OCC(=O)Nc2ccc(Cl)cn2)c1 in TRPML1 agonist is entered as 5.1

Remaining list, next part.
Each structure is followed by: D2 PAM | Six1-Eya2 blk | TRPML1 blocker | TRPML1 agonist | D2 agonist | PINK1 expr mod
- O=C1SC(SCc2ccccc2Cl)=N/C1=C\c1ccc(C(=O)O)cc1
→ -13 | 5 | -5 | -0.1 | -6.0 | 4.1%
- CC(NC(=O)C1CCN(S(=O)(=O)N2CCCCCC2)CC1)c1ccccc1 (stereo unspecified)
→ 0 | 6 | 4 | -0.4 | 0.1 | 0.8%[38.3 µM]
- CN(C)c1ccc(C(CNC(=O)c2ccccc2F)N2CCc3ccccc32)cc1 (stereo unspecified)
→ x | x | 21 | 1.1 | x | -0.8%
- CCC(C)Sc1cccc(-c2nc3ccccn3c2NCc2ccccc2)c1 (stereo unspecified)
→ -3 | 0 | 62 | 0.8 | u | u
- CCN(CC(=O)Nc1c(F)cccc1F)C(=O)c1ccc(OC)c(S(=O)(=O)NC2CCCC2)c1
→ -20 | 8 | 9 | -0.4 | -3.9 | -0.6%
- CCN1CCC(CNCc2cn(-c3ccc(OC)cc3)nc2-c2ccccc2Cl)C1 (stereo unspecified)
→ -15 | -1 | 11 | -0.8 | -3.4 | -1.8%
- COc1ccc(Cn2ccn(CC(=O)Nc3cc(C)ccc3C)c(=O)c2=O)cc1
→ x | x | 18 | 0.9 | x | 1.6%
- Cn1cnnc1SCCNS(=O)(=O)c1cccc([N+](=O)[O-])c1
→ 11 | 3 | -3 | 0.0 | 0.2 | 2.6%
- CC(=O)Nc1sc(N/N=C\c2ccccc2Cl)nc1-c1cccs1
→ 55* | -13 | -12 | 0.1 | 14 | u
- COc1ccc(C(=O)Cc2cc3cccc(OC)c3oc2=O)cc1
→ -6 | 0 | 21 | 0.4 | 7.0 | 1.9%
- COc1ccc(-c2nnc(SCCOc3ccccc3C)o2)cc1OC
→ x | x | 11 | 3.5 | x | 5.5%
- CCOC(=O)c1ccoc1CSCC(=O)N1CCN(S(=O)(=O)c2ccc(C)cc2)CC1
→ -7 | 2 | 11 | -0.4 | -2.1 | -1.0%
- CCCN=C1N(CC)C[C@@H]2[C@@H]3C(=O)N(Cc4ccccc4)C(=O)[C@@H]3[C@](Cc3ccccc3)(C(=O)OC)N12
→ 0 | -1 | -13 | -0.9 | -2.6 | 0.5%
- CCCCOc1ccc(CSCCN)cc1Cl
→ -6 | -4 | 35 | 3.0 | -4.1 | -0.1%
- CN(C)CCn1nnnc1SCC1=C(C(=O)O)N2C(=O)[C@@H](NC(=O)Cc3csc(N)n3)[C@H]2SC1
→ -5 | -23 | 3 | 1.6 | -3.0 | 0.3%
- COC(=O)Cc1c(C)c2ccc(O)c(CN3CCCC(C)C3)c2oc1=O (stereo unspecified)
→ -22 | -1 | -7 | -0.2 | -1.5 | -2.1%
- CN(C)CCNC(=O)c1ccc2c(c1)NC(=O)C(CS(=O)(=O)Cc1cccc(Br)c1)N2 (stereo unspecified)
→ x | x | -13 | 0.9 | x | 0.2%
- Cc1ccc(C2(CCN)CCOC(C(C)C)C2)cc1 (stereo unspecified)
→ -23 | -13 | -15 | 2.2 | -2.3 | 1.6%
- CN(C)/C=N/NC(=O)c1ccc(Cl)cc1
→ -10 | 5 | 19 | -0.2 | 8.2 | 1.4%
- O=C(CSc1nnnn1-c1cccc(F)c1)NC1CCCCC1
→ -18 | -7 | 11 | 0.0 | -4.9 | 3.9%
- CCOc1ccc(NC(=O)CC2C(=O)N(C)C(=S)N2Cc2ccc3c(c2)OCO3)cc1 (stereo unspecified)
→ 2 | -7 | 5 | 4.0 | -2.5 | -1.5%
- Cc1nn(C)cc1CNC(=O)C1CCC(=O)N(CC2CCCCC2)C1 (stereo unspecified)
→ 4 | 11 | 48 | 0.5 | -3.7 | 1.1%
- Cc1cc(C)c(S(=O)(=O)NCC2CCC(C(=O)NCc3ccc4c(c3)OCO4)CC2)c(C)c1 (stereo unspecified)
→ 10 | 4 | 29 | 4.5 | 1.4 | x
- COc1cc2c(c3oc(=O)cc(CC(=O)O)c13)CCC(C)(C)O2
→ 1 | -2 | 8 | 0.3 | -4.3 | 2.3%
- CC(C)(C)CN1CCNC(=O)C1CC(=O)N1CCOc2ccccc2C1 (stereo unspecified)
→ -3 | -4 | 1 | 0.1 | -3.5 | 0.0%
- CCOC(=O)c1cc(-c2ccc(C)cc2)nn1Cc1ccccc1
→ x | x | 8 | -0.4 | x | 8.8%
- CCC1CCc2[nH]nc(C(=O)O)c2C1 (stereo unspecified)
→ -12 | 1 | 61 | -0.6 | -0.8 | 1.2%[38.3 µM]
- CC[C@]12c3[nH]c4ccc(OC)cc4c3CCN1C(=O)C(CC(=O)NCC13CC4CC(CC(C4)C1)C3)C[C@@H]2C(=O)N1CCN(C(=O)c2ccco2)CC1 (stereo partly specified)
→ x | -13 | -7 | 2.5 | -1.5 | 0.2%
- COc1ccc(Nc2nnc(SCc3cn4c(C)cccc4n3)s2)cc1
→ -5 | -25 | -14 | 2.9 | -2.1 | 7.5%
- CC(C)c1ccc(NC(=O)Nc2csc3c2CCCC3)cc1
→ x | x | -14 | -0.5 | x | 29%
- O=c1cc(COc2ccc(Cl)c(Cl)c2)nc2sccn12
→ 2 | 5 | -3 | 1.2 | 0.2 | -2.4%
- Cc1ccc(-c2c(CC(=O)O)c(C)nc3sc4c(c23)CCCC4)cc1
→ 1 | 0 | -4 | -0.4 | -0.9 | -0.2%
- CCc1ccc(NC(=O)C2CC(=O)N(C(C)C)C2)cc1 (stereo unspecified)
→ -2 | 2 | 1 | -0.9 | -3.4 | -2.5%

Grouped by structure: the compounds so far with bromine
Each structure is followed by: D2 PAM | Six1-Eya2 blk | TRPML1 blocker | TRPML1 agonist | D2 agonist | PINK1 expr mod
- CCCc1nc2c(C)cc(Br)cn2c1Cc1ccccc1C(F)(F)F
→ -13 | 2 | x | 0.4 | -9.6 | -0.7%
- CCOC(=O)c1cc(Br)c(=O)n2ccccc12
→ 5 | 0 | -11 | -0.9 | -2.4 | -1.4%
- CN(C)CCNC(=O)c1ccc2c(c1)NC(=O)C(CS(=O)(=O)Cc1cccc(Br)c1)N2 (stereo unspecified)
→ x | x | -13 | 0.9 | x | 0.2%
